Bfl-1 A1 inh: inhibitors of the anti-apoptotic protein A1, read as caspase activation; caspase activation, % (no concentration beside the values); hit rate 0.066% among 330,000; MEF A1-2A-BIM cells, Caspase-Glo 3/7 luminescence, 3 h; percent of clofoctol response, vehicle zero;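 active = over half of replicate activation scores above 10%, or exactly half above 10 with the replicate mean above 10; inconclusive = replicate mean below 10 yet half the replicates above 10; inactive = over half of replicates below 10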;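 also: wells of about 30 µL received 50 nL stock; many hits fall short of the cut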
T cruzi inh: T. cruzi replication inhibition | hit rate 1.4% among 300,000 | T. cruzi beta-gal in NIH3T3, luminescence, 90 h | inhibition, % (concentration not given with the values);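 active = mean inhibition across valid replicates above about 55%, limit read from the data; inconclusive = mean below that limit but half or more replicates reach it; inactive = mean below it, under half of replicates reach it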;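 also: signal also drops with host cell toxicity which is not excluded here; 0% = plate median of DMSO wells and 100% = zero luminescence signal; higher percent means less beta-gal luminescence so fewer parasites; stock transfer was 50 nL into about 50 µL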
Calb FLC: C. albicans growth modulation with fluconazole. growth inhibition, % (test concentration not listed). hit rate 0.57% among 300,000. C. albicans CaCi-2 (fluconazole-resistant clinical isolate) + fluconazole, Alamar Blue growth, 48 h;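 active = most replicates above 75%; inconclusive = exactly half above 75%; inactive = most below 75%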;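 also: all wells also contain fluconazole at 8 µg/ml as a sub-toxic cotreatment; 0% = median of DMSO wells and 100% = median of geldanamycin control wells; wells of about 8 µL received 7.5 nL stock; the first replicate is given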
B2AR ag: activates human beta-2 adrenergic receptor causing internalization. P07550. Am2.2-beta2AR cells, FAP receptor internalization, flow cytometry; reference of the scale not given here. response, % (test concentration not listed). hit rate 0.43% among 340,000. AID 504454;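 active = response above a set limit, near 3 SD of response in nonfluorescent compounds, cut at about 42% in these data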;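 also: stock transfer was 100 nL into about 11 µL; a reference agonist was the positive control; negative values mostly stem from fluorescent compounds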
Target sequence (P07550 whole entry, looked up): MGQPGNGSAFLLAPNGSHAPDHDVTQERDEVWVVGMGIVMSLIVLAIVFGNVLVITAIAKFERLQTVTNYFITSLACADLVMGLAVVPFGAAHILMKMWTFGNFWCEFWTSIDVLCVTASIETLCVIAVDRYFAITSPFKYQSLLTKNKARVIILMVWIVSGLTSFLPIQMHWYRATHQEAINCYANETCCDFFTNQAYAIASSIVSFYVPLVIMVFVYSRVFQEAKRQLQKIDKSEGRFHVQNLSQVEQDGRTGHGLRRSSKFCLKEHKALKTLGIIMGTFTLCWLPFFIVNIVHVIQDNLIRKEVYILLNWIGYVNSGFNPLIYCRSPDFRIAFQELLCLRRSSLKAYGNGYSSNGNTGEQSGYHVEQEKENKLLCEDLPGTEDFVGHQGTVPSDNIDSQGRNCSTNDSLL
LANA-H2A inh: blocks KSHV LANA binding to histone H2A/H2B; cell-free LANA-H2A/H2B peptide, fluorescence polarization; Q9QR71; hit rate 0.6% among 320,000; inhibition, % (test concentration not listed); AID 2629; in the data active = inhibition mostly above about 10%, no sharp cut-off; inactive = mostly below about 6.7%;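 also: stock transfer was 7.5 nL into about 10 µL; 0% = median of vehicle wells and 100% = median of positive control wells; one replicate is shown; the record names a cut of 25% in any replicate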
Beta apoptosis: blocks beta cell apoptosis | protection from apoptosis, % (test concentration not listed) | hit rate 0.8% among 300,000 | AID 435005 | INS-1E cytokine-induced death, ATP luminescence, 48 h; percent of positive-control rescue, neutral wells zero;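 active = all replicates at 75% or more, or half of them and the mean; inconclusive = half reach 75% but not the mean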;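 also: 0% = cytokine-treated negative control wells and 100% = positive control rescue; higher means more ATP so stronger rescue from cytokine killing; wells of about 40 µL received 100 nL stock; the first replicate is given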
ALR H2O2 inh: inhibitors of human sulfhydryl oxidase ALR; P55789; inhibition, % (concentration not given with the values); hit rate 3.8% among 290,000; purified ALR, DTT oxidation, H2O2 HRP-luminol luminescence;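 active = mean and each replicate at 75% or more; inconclusive = only one of the two met; inactive = neither met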;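 also: stock transfer was 7.5 nL into about 7.5 µL; 0% = neutral wells and 100% = wells with inactivated enzyme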
Target sequence (P55789 whole entry, looked up): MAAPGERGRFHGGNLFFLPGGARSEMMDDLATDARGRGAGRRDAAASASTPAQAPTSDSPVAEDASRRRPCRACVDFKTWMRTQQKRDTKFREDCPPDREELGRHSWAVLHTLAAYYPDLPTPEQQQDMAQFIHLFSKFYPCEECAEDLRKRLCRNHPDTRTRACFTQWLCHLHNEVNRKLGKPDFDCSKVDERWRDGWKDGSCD
Ecoli rRNA inh: inhibitors of bacterial rRNA selective over humanized ribosomes. GFP signal change (wild-type ribosome), % (concentration not given with the values). hit rate 1.6% among 350,000. E. coli WT GFP vs humanized-ribosome RFP mutants, fluorescence, 24 h; stronger effect = lower value; DMSO median 0, no signal -100. AID 720706;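 active = significant combined selectivity score with lowered wild-type GFP, culture density cut under 30%, mutant RFP and density less affected; inactive = any of these conditions unmet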; also: one replicate is shown; some compounds called inactive have numbers as strong as hits
Ecoli rRNA inh OD600: also measured in Ecoli rRNA inh; calls as there; OD600 change, %; measured here: OD600 growth;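 optical density of the mix in the first replicate; 0 = DMSO median and -100 = no signal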
Ecoli rRNA inh RFP: second read-out of Ecoli rRNA inh, no call of its own (marks repeat the call); RFP signal change, %; measured here: RFP humanized mutant strains;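 first replicate; 0 = DMSO median and -100 = no signal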
Numbers without * were called inactive; ? = inconclusive; . = no result given. These rows are one share of the data; rates above refer to the full screens.

SMILES	Bfl-1 A1 inh	T cruzi inh	Calb FLC	B2AR ag	LANA-H2A inh	Beta apoptosis	ALR H2O2 inh	Ecoli rRNA inh	Ecoli rRNA inh OD600	Ecoli rRNA inh RFP
Cc1nc(CN2CCN(C(=O)CCc3nnc(Cc4c[nH]c5ccccc45)o3)CC2)cs1	0.4	-11	3	6	1.5	2	.	.	.	.
CC(C)NC(=O)c1onc(CSc2ccc(C(C)C)cc2)c1C(=O)O	?	-14	-10	-10	1.0	-8	-4	.	.	.
Cc1nn(-c2ccccc2)c2ncc(C(=O)c3cc(Cl)ccc3O)cc12	0.5	-1	8	3	7.4	4	.	.	.	.
COc1c(C)cc(Br)cc1C(=O)NC(=S)NCc1ccco1	0.8	0	1	-5	-6.8	2	4	-11	-13	-0.4
CC1CCN(C(=O)CSc2nc3c(c(=O)n2C)SCC3)CC1	0.1	9	-4	0	-3.4	-7	0	3	-1	1.8
COc1ccc(N(Cc2ccccc2)S(=O)(=O)c2cccc(C(=O)Nc3ncccc3C)c2)cc1	0.1	.	.	0	2.1	-8	2	-22	-22	-4.2
COc1ccc(C(=O)Nc2ccnn2C2CCN(Cc3ccccn3)CC2)cc1	0.0	-11	-2	3	-1.2	-2	-43	-6	-5	-6.6
CCc1ccc(N=C2NC(=O)/C(=C/c3cc(Br)c(OCC(=O)O)c(OC)c3)S2)cc1	0.9	-11	-12	3	1.3	-1	98*	-6	-4	1.8
COc1ccc(CNc2c(C(=O)O)cnc3c2cnn3C)cc1	-0.3	-6	11	-7	1.9	.	-2	-18	-13	-1.1
Cc1c(C(=O)Nc2cccc([N+](=O)[O-])c2)csc1-c1ccccc1	-6.1	60*	-11	4	-2.0	3	6	.	.	.
O=C(CSc1ncn[nH]1)N1N=C2/C(=C/c3ccccc3)CCCC2C1c1ccccc1 (stereo not drawn)	0.9	4	?	-1	5.6	-6	-5	-24	-23	-2.0
CN(C)S(=O)(=O)c1ccc(NC(=O)c2ccncc2)cc1	-0.1	5	26	-8	-7.4	3	-24	3	12	0.9
COc1ccc(F)cc1S(=O)(=O)NC(Cc1ccccc1)C(N)=O (stereo not drawn)	1.8	-8	2	-15	-0.3	0	-1	.	.	.
Cc1ccc(S(=O)(=O)Nc2ccc(C(=O)N3CCOCC3)cc2)cc1	0.4	-23	5	-7	-3.0	-2	-7	4	5	-2.7
O=C(Nc1cccc(-c2nnc(-c3ccccc3)o2)c1)C1CCCCC1	-0.3	1	18	5	-3.5	7	6	.	.	.
O=C(Nc1ccc(F)cc1)Nc1ccc2c(c1)OCO2	-8.4	6	5	1	1.1	4	-24	-4	-6	-1.7
CCOC(CNC(=O)c1cc(C)nn1-c1ccccc1)OCC	-0.1	-4	-1	4	7.0	-3	2	.	.	.
CC(Oc1ccc(Cl)cc1Cl)C(=O)NCCCN(C)C (stereo not drawn)	0.4	?	2	6	0.0	5	-13	8	5	-0.6
O=c1[nH]c(CN2CCc3ccccc3C2)nc2ccccc12	0.7	-22	16	-1	0.5	4	-5	.	.	.
CCOC(=O)c1c(C)n(C)c2cc(Br)c(C(=O)OC)cc12	0.9	-2	6	16	1.0	2	.	.	.	.
O=C(NNC1=C(C(=O)C(F)(F)F)CCC1)c1cccc(O)c1	1.2	2	-24	5	-3.2	-6	53	.	.	.
COc1ccc(/C=C(\C#N)C(=O)c2c(C)[nH]c3ccccc23)cc1OC	1.3	-5	-1	-13	2.8	4	15	.	.	.
COc1ccccc1NC(=O)c1csc2c1CCC(C)C2 (stereo not drawn)	1.1	-21	2	-35	0.6	0	-7	-35	-38	-6.0
Cc1ccc(S(=O)(=O)N(CCC(=O)O)c2ccccc2)cc1	0.1	-6	1	14	-3.9	7	-2	.	.	.
CC(C)(C)OC(=O)C[C@@H]1C/C=C\C[C@@H](CC(=O)NCCO)C(=O)NC[C@H](c2ccccc2)OC1=O	2.6	.	.	2	4.2	-4	-4	4	11	2.0
(listing goes on)
SMILES	Bfl-1 A1 inh	T cruzi inh	Calb FLC	B2AR ag	LANA-H2A inh	Beta apoptosis	ALR H2O2 inh	Ecoli rRNA inh	Ecoli rRNA inh OD600	Ecoli rRNA inh RFP
Cc1sc(NC(=O)c2cc(-c3ccccc3)nc3ccccc23)c(C(N)=O)c1C	-1.0	?	58	6	-4.4	21	-1	2	3	9.6
Cc1ccc(Nc2nnc(SCc3nc4ccccc4c(=O)[nH]3)s2)cc1	-0.8	-11	-9	7	1.9	58	-13	9	4	-2.4
CCOC(=O)c1sc(NC(=O)c2ccc(S(=O)(=O)N(CC)CC)cc2)nc1C	1.5	3	-9	3	4.5	7	-1	.	.	.
COC(=O)C1CCN(S(=O)(=O)c2ccc(NC(C)=O)cc2)CC1	0.5	-23	-10	7	2.0	3	-22	.	.	.
CNC[C@H]1Oc2ccc(NC(=O)Nc3ccc4c(c3)OCO4)cc2C(=O)N([C@H](C)CO)C[C@@H]1C	0.0	.	.	-6	-4.2	-2	23	4	7	1.3
Cc1c(NC(=O)COC(=O)c2ccc(Br)o2)c(=O)n(-c2ccccc2)n1C	0.8	-11	6	4	4.7	-2	-5	-19	-11	0.1
CCOc1ccc(NC(=O)COC(=O)C2C3CC4OC(=O)C2C4C3)cc1 (stereo not drawn)	0.4	-7	1	-2	-2.4	-2	-3	1	11	-2.9
O=C(CCCCC(=O)N1CCOCCOCCOCC1)OCc1ccccc1	0.9	-9	-5	-1	0.3	0	-10	0	1	-3.3
CCOc1ccc(C(=O)Nc2ccccc2N2CCN(C(=O)c3ccccc3)CC2)cc1[N+](=O)[O-]	-0.5	44	-10	14	-8.3	13	1	14	12	2.5
O=C(NC1c2ccccc2-c2ccccc21)N1CCOCC1	-0.2	3	-3	-8	1.7	0	-2	7	1	-4.3
CCCCN(C(=O)c1cnc2n(c1=O)CCS2)c1ccccc1	0.7	-3	0	-9	-2.6	-4	-5	-2	5	-5.4
Cc1cccc(-c2c3c(=O)n(C)c(=O)n(C)c3cn2C(C)(C)C)c1	1.2	2	-9	-1	-2.7	-4	2	.	.	.
CC1(C)NC(C(=O)O)Cc2c1[nH]c1ccccc21 (stereo not drawn)	0.8	-15	2	-8	7.0*	-7	-8	12	14	4.9
Fc1ccc(C2c3[nH]c4ccccc4c3CCN2CCCn2cccn2)cc1 (stereo not drawn)	0.7	10	-1	-2	-1.3	2	.	-1	0	-4.7
COc1cc(C(=O)Nc2ccccc2N2CCN(S(C)(=O)=O)CC2)cc(OC)c1OC	-0.1	-5	-10	10	-0.4	5	-17	.	.	.
CC1CCCN(c2ccc([N+](=O)[O-])s2)C1 (stereo not drawn)	.	8	-20	3	.	.	.	4	4	0.1
CC(=O)Nc1c(C)nn(C(C)=O)c1C	0.1	-11	0	1	-5.2	-4	-6	.	.	.
CCOC(=O)CNC(=O)C1CCN(S(=O)(=O)c2ccc(-c3nn[nH]n3)cc2)CC1	-0.7	-4	2	-2	-0.1	-1	2	6	2	-1.9
CC(C)COc1ccc(C/C(N)=N/n2cnnc2)cc1	0.0	-36	4	-18	-4.0	35	11	.	.	.
O=C(OCC(=O)N(CCc1ccccc1)Cc1ccccc1)c1cccc(O)c1	-1.6	11	-10	-6	-6.9	-4	.	-20	-21	-0.4
NC(=O)c1cccc2c1C(=O)N(C1CCCCC1)C2	-0.1	-4	-5	-6	4.6	-4	-6	-7	-5	-3.9
NNC(=S)NCc1cccnc1	0.5	-6	0	-10	-2.8	-2	?	.	.	.
O=c1cc(O)nc2n1CCCS2	0.5	-10	3	7	3.8	-8	-2	.	.	.
CNC(=O)CCc1[nH]c2ccccc2c1Sc1ccccc1	0.8	1	17	-11	-2.6	-20	98*	-12	-7	8.6
COc1ccc(C(=O)NCc2nnc(SCC(=O)N3CCCCC3)o2)cc1	0.5	-8	6	9	-8.2	-5	0	18	13	-1.5

Six entries drawn at random from the list so far, as already listed:
SMILES	Bfl-1 A1 inh	T cruzi inh	Calb FLC	B2AR ag	LANA-H2A inh	Beta apoptosis	ALR H2O2 inh	Ecoli rRNA inh	Ecoli rRNA inh OD600	Ecoli rRNA inh RFP
COc1cc(C(=O)Nc2ccccc2N2CCN(S(C)(=O)=O)CC2)cc(OC)c1OC	-0.1	-5	-10	10	-0.4	5	-17	.	.	.
CC(=O)Nc1c(C)nn(C(C)=O)c1C	0.1	-11	0	1	-5.2	-4	-6	.	.	.
CC1(C)NC(C(=O)O)Cc2c1[nH]c1ccccc21 (stereo not drawn)	0.8	-15	2	-8	7.0*	-7	-8	12	14	4.9
NNC(=S)NCc1cccnc1	0.5	-6	0	-10	-2.8	-2	?	.	.	.
CCOc1ccc(C(=O)Nc2ccccc2N2CCN(C(=O)c3ccccc3)CC2)cc1[N+](=O)[O-]	-0.5	44	-10	14	-8.3	13	1	14	12	2.5
Fc1ccc(C2c3[nH]c4ccccc4c3CCN2CCCn2cccn2)cc1 (stereo not drawn)	0.7	10	-1	-2	-1.3	2	.	-1	0	-4.7

Further structures follow:
SMILES	Bfl-1 A1 inh	T cruzi inh	Calb FLC	B2AR ag	LANA-H2A inh	Beta apoptosis	ALR H2O2 inh	Ecoli rRNA inh	Ecoli rRNA inh OD600	Ecoli rRNA inh RFP
COCCCNC(=O)Cn1cc(C(=O)c2cccs2)c2ccccc21	0.9	4	-1	-4	1.6	-5	-9	.	.	.
Cc1onc(-c2c(F)cccc2Cl)c1C(=O)OCN1C(=O)c2ccccc2C1=O	0.5	-11	.	0	0.1	-6	-4	.	.	.
O=C(NNC(=O)C1CCCC1)c1ccc(F)cc1	0.3	-17	0	1	-1.5	0	23	9	12	-0.8
O=C(NC1CCCC1)C(c1ccc(N2CCOCC2)cc1)N(C(=O)c1ccco1)c1ccccc1F (stereo not drawn)	1.0	-11	-2	-5	0.6	-8	5	23	24	0.2
CCc1nnc(NC(=O)Nc2ccc(OC)cc2)s1	0.2	-7	-3	-4	2.0	-5	.	.	.	.
Cc1csc(NC(=O)c2ccncc2)n1	-0.5	4	-7	-5	-0.8	-7	-33	6	-4	-2.0
CCOC(=O)Cn1c(O)c(N=NC(=O)CNC(=O)Cc2ccccc2)c2ccccc21	-0.7	1	-3	-3	1.2	-10	0	13	11	-3.5
COc1cc(S(=O)(=O)Nc2ccccc2C)ccc1Cl	0.5	6	-32	-5	-1.5	-2	.	.	.	.
O=C(Nc1nonc1NC(=O)c1cccs1)c1cccs1	-0.3	11	85*	-2	5.0	0	3	-25	-37	-0.6
CNC(=S)N/N=C/c1ccc(OCC(=O)Nc2c(C)cc(C)cc2C)c(OC)c1	0.1	-11	-8	12	2.9	4	11	.	.	.
c1ccc(CNc2ncnc3c2oc2ccccc23)nc1	-0.2	-15	5	14	1.1	1	-2	.	.	.
COc1ccc(Cn2c(-c3ccc(OC)cc3)n[nH]c2=S)cc1	-0.9	10	13	7	7.8	4	95*	1	-27	0.9
CC(C)(C)c1nnc2sc(SC/C(O)=C(\C#N)c3nc4ccccc4[nH]3)nn2c1=O	-0.2	-10	6	-1	2.4	5	.	.	.	.

Compound activity from PubChem.
